PK Bst – Pyruvate Kinase; partly purified Bacillus stearothermophilus pyruvate kinase, luminescence ATP production; ribose 5-phosphate activator present at AC10; Potency, µM; 1.2% of 51,000 active; AID 361, 2006; in the data active means potency below about 11 µM; inconclusive means mostly about 12 µM to 25 µM; inactive means weaker than that;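 the screen sought inhibitors and activators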;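 note: potency is the fitted concentration of half-maximal effect; scaled between full activation by ribose 5 phosphate and full inhibition by luteolin; about four in five hits inhibit and the cells do not say which; series up to 57 µM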
TsaE inh – qHTS Assay for Inhibitors of YjeE; tRNA threonylcarbamoyladenosine biosynthesis protein TsaE (Escherichia coli (strain …; purified YjeE, fluorescence polarisation of a bound ADP probe; Potency, µM; 0.05% of 71,000 active; AID 605, 2007; active = well fitted falling curve; inconclusive = weaker or top-dose-only fall, or a rising curve; inactive = flat or poorly fitted curve;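 note: top concentration of the series not given in the record; excess ADP was the control for the full effect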
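Purified YjeE (10 uM) with BODIPY Texas Red-labeled ADP probe (2 uM); compounds pin-transferred, 15 min at room temperature. Binding inhibition read as decreased fluorescence polarization; ADP titration as control.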
The depositor's hits bear a star; i = inactive; u = inconclusive; x = no result given.

molecule | PK Bst | TsaE inh
CCCC(=O)Nc1ccc2c(c1)nc(CN1CCCCC1)n2C | >57 | i
CC(=O)OCC(=O)[C@@]1(O)CC[C@H]2[C@@H]3CCC4=CC(=O)C=C[C@]4(C)[C@H]3[C@@H](O)C[C@@]21C | >11 | x
CCOC(=O)c1cn(CC(=O)Nc2ccccc2C(=O)OCC)nn1 | >57 | i
COc1ccc(S(=O)(=O)N2CCC(O)(c3ccc4c(c3)OCO4)CC2)cc1 | >57 | i
Cn1nnc2cc(NC(=O)N3CC4(C)CC3CC(C)(C)C4)ccc21 (configuration not stated) | >57 | i
Cc1ccc(NC(=O)CSc2nnc([C@@H]3CCCN3C(=O)OC(C)(C)C)o2)c(C)c1 | >57 | i
O=C(NCc1cccs1)C1CCCN(S(=O)(=O)c2cccc3cccnc23)C1 (configuration not stated) | x | i
COc1ccc(N2CCN(C(=O)c3cn(C)c(=O)c4c3c3ccccc3n4C)CC2)cc1 | >57 | i
O=S(=O)(/C=C/c1ccccc1)n1cnc2ccccc21 | >57 | i
O=C1N(CCCCN2C(=O)C3(OCCO3)c3ccccc32)c2ccccc2C12OCCO2 | >57 | i
CC(C)NS(=O)(=O)c1ccc(OCC(=O)NCc2ccc3c(c2)OCO3)c(Cl)c1 | >57 | i
O=C(O)CSc1nc2ccccc2[nH]1 | x | i
COC(=O)C1(S(=O)(=O)c2cc(Br)cc3c2N(C(C)=O)CC3)CC1 | >57 | i
CCOc1ccccc1-n1c(CN2CCN(C(=O)c3ccco3)CC2)nc2ccccc2c1=O | >57 | i
c1ccc2c(-n3ccnc3)nc(-c3ccoc3)nc2c1 | x | i

More results
molecule | PK Bst | TsaE inh
O=C(CSc1nccn1Cc1ccccc1)Nc1nccs1 | >57 | i
Nn1c(SCc2cccc(C(F)(F)F)c2)nnc1-c1ccco1 | >57 | i
COc1ccc(CCn2nnnc2C(C(C)C)N2CCC(C(N)=O)CC2)cc1OC (configuration not stated) | >57 | i
CCCc1c(C(=O)OCC)[nH]c2c1C(=O)CCC2 | x | i
CSCCC(NS(=O)(=O)c1cccs1)C(=O)NCc1cccs1 (configuration not stated) | >57 | i
O=C(CSc1nnnn1C1CCCC1)c1ccc2c(c1)OCCO2 | i | i
CCCCc1ccc(-c2nc(N)n[nH]2)cc1 | x | i
COc1cc(S(=O)(=O)N2CCOCC2)ccc1NC(=O)CSc1nnc(N)s1 | >57 | i
CCCCNC(=O)NS(=O)(=O)c1ccc(NS(=O)(=O)c2ccccc2)cc1 | x | i
CCc1c(O)nc(SCC(=O)Nc2ccccc2C)[nH]c1=O | >57 | i
COc1ccc(C)cc1S(=O)(=O)N1CCC(C(=O)N2CCOCC2)CC1 | >57 | i
CC(C)(C)n1nnnc1C(c1cccc(C(F)(F)F)c1)N1CCOCC1 (configuration not stated) | >57 | i
CC1CC(C)CN(CCCNC(=O)Cc2c(C(=O)O)[nH]c3ccccc23)C1 (configuration not stated) | >57 | i
CC1CCc2nc(NC(=O)c3cc(C(C)(C)C)nn3C)sc2C1 (configuration not stated) | >57 | i
O=C(O)CCNS(=O)(=O)c1ccc(Oc2ccccc2)cc1 | >57 | i

Further structures:
molecule | PK Bst | TsaE inh
N#Cc1cn(CC(=O)O)c2ccccc12 | >57 | i
COc1ccc(NC(=O)CCCCn2c(=O)[nH]c3ccccc3c2=O)cc1 | >57 | i
O=C(O)COc1ccccc1Cc1ccccc1 | >57 | i
Cc1ccc(CCNS(=O)(=O)c2cnc[nH]2)cc1 | >57 | i
Cc1ccc2nc(-c3cccc(-c4nc5ccc(C)cc5o4)n3)oc2c1 | >57 | i
COc1ccc(-n2c(SCC(=O)Nc3nccs3)nc3sc4c(c3c2=O)CCN(C)C4)cc1 | >57 | i
CCOc1ccc(C2CC(=O)NC3=C2C(=O)CCC3)cc1 (configuration not stated) | >57 | i
C#CCSc1n[nH]c(-c2ccco2)n1 | x | i
Cc1ccsc1C1C(C(=O)O)c2ccccc2C(=O)N1C (configuration not stated) | >57 | i
COc1cccc(-c2nc(CS(=O)(=O)CC(=O)NCc3ccccc3)c(C)o2)c1 | x | i
O=C1CCCC2=C1C(c1ccco1)Nc1ccc3ccccc3c12 (configuration not stated) | x | i
CCc1c(C(=O)Nc2nnc(C3CC3)s2)csc1C | >57 | i
CCC1=C(C)CN(C(=O)NCCc2ccc(S(=O)(=O)NC(=O)NC3CCC(C)CC3)cc2)C1=O (configuration not stated) | x | i
O=c1[nH]c2cc3c(cc2cc1CN(CCc1ccccc1)Cc1nnnn1C1CCCC1)OCCO3 | >57 | i
Cc1cc(C)nc(N2CCCC(C(=O)NCCC3=CCCCC3)C2)n1 (configuration not stated) | >57 | i

(list continues)
molecule | PK Bst | TsaE inh
Cc1onc(-c2c(F)cccc2Cl)c1C(=O)NCC1COc2ccccc2O1 (configuration not stated) | x | i
COc1ccc(-c2nnc(COc3ccc4ccccc4c3)o2)cc1OC | x | i
COc1ccccc1-c1nnc(NC(=O)C(C)SC2=NCCS2)s1 (configuration not stated) | x | i
COc1ccc(N2CCCn3c2nc2c3c(=O)n(CCc3ccccc3)c(=O)n2C)cc1 | >57 | i
CC(C(=O)O)N1C(=O)CSC1=S (configuration not stated) | >57 | i
CCC(=O)NCCSc1c[nH]c2ccccc12 | >57 | i
CC(C)C(NC(=O)OCc1ccccc1)C(=O)NCC(=O)OC(C)(C)C (configuration not stated) | x | i
Cc1ccccc1Nc1nc(N)nc(COC(=O)C(NC(=O)c2ccco2)C(C)C)n1 (configuration not stated) | >57 | i
CCCCCCn1c2c(c(=N)c3c1CCC3)CCC2 | i | i
CCCN(CCO)Cc1cccc(Oc2ccccc2)c1 | x | i
CCOC(=O)c1ccc(NS(=O)(=O)c2cnc[nH]2)cc1 | >57 | i
O=C(CCC(=O)N(CC(=O)NC1CCCC1)Cc1ccc2c(c1)OCO2)Nc1ccccn1 | >57 | i
Cc1cc(C)c2cc(C(c3nnnn3CC3CCCO3)N3CCN4CCCC4C3)c(=O)[nH]c2c1 (configuration not stated) | >57 | i
CC(C)[C@@H](CC(=O)N[C@@H]1CCCC[C@H]1C(=O)N[C@H](CC(=O)N[C@@H](CCC(=O)O)CC(=O)O)Cc1c[nH]c2ccccc12)NC(=O)C[C@H](Cc1c[nH]c2ccccc12)NC(=O)[C@@H]1CNCC[C@H]1N | x | i
CCOC(=O)N1CCC(NC(=O)Cn2cc3c(n2)CCC(C)C3)CC1 (configuration not stated) | >57 | i

Sorted by molar mass (smallest number first): 3 of the compounds above.
molecule | PK Bst | TsaE inh
COc1ccc(-c2nnc(COc3ccc4ccccc4c3)o2)cc1OC | x | i
CC(C)C(NC(=O)OCc1ccccc1)C(=O)NCC(=O)OC(C)(C)C (configuration not stated) | x | i
Cc1onc(-c2c(F)cccc2Cl)c1C(=O)NCC1COc2ccccc2O1 (configuration not stated) | x | i

(cont.)
molecule | PK Bst | TsaE inh
COc1ccc(NC(=O)C2CCCN2S(=O)(=O)c2ccc(F)cc2)cc1 (configuration not stated) | x | i
CC(C)C[C@@H](CC(=O)N[C@@H](CCC(=O)O)CC(=O)O)NC(=O)[C@@H]1CCCC[C@H]1NC(=O)C[C@H](CCCN)NC(=O)C[C@H](Cc1c[nH]c2ccccc12)NC(=O)[C@@H]1CNCC[C@H]1N | x | i
CCOc1cc2[nH]c(=O)n(CC3CCC(C(=O)NCCC(C)C)CC3)c(=O)c2cc1OCC (configuration not stated) | >57 | i
COC(=O)c1ccccc1NC(=O)c1ccccc1SC | >57 | i
COc1ccc(N(CC(=O)Nc2ccccc2SC)S(C)(=O)=O)cc1OC | u | i
COc1cc(-c2nnc(SCC(=O)c3cc(C)n(CC4CCCO4)c3C)o2)cc(OC)c1OC (configuration not stated) | >57 | i
CCOC(=O)COc1ccc2nsnc2c1 | >57 | i
CCCCCCCCCCCC1=C(O)C(=O)C=C(O)C1=O | x | i
O=C(CN1C(=O)c2ccccc2S1(=O)=O)N1CCN(c2ccc(F)cc2)CC1 | >57 | i
Cc1cccn2c(=O)c3cc(C(=O)NC4CCCC4)c(=N)n(C4CCCC4)c3nc12 | >57 | i
N#C/C(=C(/O)CN1CCOCC1)c1nc(-c2ccccc2)cs1 | >57 | i
COc1nc(NCCc2ccc(OC)c(OC)c2)nc(OC)n1 | >57 | i
CC(C)(C)SCCNC(=O)COc1ccccc1 | x | i
COc1ccccc1CNC(=O)c1cc2c(=O)n(C)c3ccccc3c2n1C | x | i
CCOc1ccc(NC(=O)Nc2cc(C)ccc2OC)cc1 | x | i

The results go on.
molecule | PK Bst | TsaE inh
Cc1c(Br)cc(C(=O)N2CCN(CCO)CC2)c(C)c1C | x | i
N#CCSc1nc2ccccc2c(=O)n1CCC(=O)NC1CCCCC1 | >57 | i
C=C(C)C(C)(C#CCN1CCCC1)OC(C)=O (configuration not stated) | >57 | i
O=C(COc1ccc(Cl)cc1)NCc1nnc(SCC(=O)NCCc2ccccc2)o1 | >57 | i
CCOC(=O)CN1CC23C=CC(O2)C(C(=O)Nc2ccc(OCC)cc2)C3C1=O (configuration not stated) | x | i
CCN(C1CCS(=O)(=O)C1)S(=O)(=O)c1cccs1 (configuration not stated) | >57 | i
COCCN1CCn2c(nc3cc(NC(=O)NC4CCCCC4)ccc32)C1 | >57 | i
COC(=O)C1=C(N)Oc2cc(C)[nH]c(=O)c2C1c1cc(OC)c(OC)c(OC)c1 (configuration not stated) | >57 | i
Cc1ccc(C(C(=O)NC2CCCCC2)N(Cc2cccnc2)C(=O)C2COc3ccccc3O2)o1 (configuration not stated) | >57 | i
CN1CCCN(CC(O)COCc2cccs2)CC1 (configuration not stated) | >57 | i
Cn1nnnc1SCC(=O)c1cccs1 | >57 | i
CCCCCCNC(=O)CCNC(=O)c1cc(OC)c(OC)c(OC)c1 | >57 | i
Cc1ccc(-c2ccc(CCC(=O)O)n2NC(=O)c2cccs2)cc1 | >57 | i
CCCNC(=O)c1ccc(CNc2c(N3CCC(C(=O)OCC)CC3)c(=O)c2=O)cc1 | >57 | i
Cc1ccc2c(CC(=O)Nc3sccc3C(N)=O)coc2c1 | x | i

The listing continues:
molecule | PK Bst | TsaE inh
Cc1cnc(CNc2cc(-c3cccc(C#N)c3)ncn2)cn1 | x | i
N#CC1=C(SCC(=O)Nc2cccc3cccnc23)NC(=O)C(C#N)C12CCCCC2 (configuration not stated) | i | i
O=C(Nc1ccc(Cl)cc1F)C1CCN(S(=O)(=O)c2cccnc2)CC1 | >57 | i
O=S(c1ccccc1)c1ccc2nnnn2n1 (configuration not stated) | x | i
Cc1nc(NCc2ccco2)nc2c1C(=O)CC(C)C2 (configuration not stated) | >57 | i
CCCn1c(C)nc2c(c1=O)c1nc3ccccc3nc1n2-c1ccc2c(c1)OCCO2 | >57 | i
COc1ccccc1CN1CCC2(CC1)CCN(S(=O)(=O)c1ccccc1)CC2 | x | i
COCCNC(=O)[C@H]1C[C@@H]1[C@H](NP(=O)(c1ccccc1)c1ccccc1)c1ccccc1 | x | i
Cn1cccc1-c1nc2ccc(NC(=O)c3ccco3)cc2[nH]1 | i | i
Cc1cc(NC(=O)c2ccccc2Oc2ccccc2)no1 | >57 | i
O=C1c2ccccc2C(Nc2ccc(S(=O)(=O)N3CCCCCC3)cc2)N1Cc1ccco1 (configuration not stated) | x | i
CNc1oc(C)nc1S(=O)(=O)c1ccc(C)cc1 | >57 | i
CN(c1cc(=O)n2ccccc2n1)C1CCCCC1 | >57 | i
Cn1c(=O)cc(NCc2ccccc2)[nH]c1=O | >26 | x
COCCN1Cc2cccc(C(=O)NCc3ccc4c(c3)OCO4)c2C1=O | >57 | i

Random excerpt: 6 compounds from above
molecule | PK Bst | TsaE inh
O=C(Nc1ccc(Cl)cc1F)C1CCN(S(=O)(=O)c2cccnc2)CC1 | >57 | i
Cn1c(=O)cc(NCc2ccccc2)[nH]c1=O | >26 | x
Cn1cccc1-c1nc2ccc(NC(=O)c3ccco3)cc2[nH]1 | i | i
O=C1c2ccccc2C(Nc2ccc(S(=O)(=O)N3CCCCCC3)cc2)N1Cc1ccco1 (configuration not stated) | x | i
Cc1nc(NCc2ccco2)nc2c1C(=O)CC(C)C2 (configuration not stated) | >57 | i
Cc1cc(NC(=O)c2ccccc2Oc2ccccc2)no1 | >57 | i

(listing goes on)
molecule | PK Bst | TsaE inh
C[C@H]1[C@H](C)CC[C@@]2(C(=O)O)CC[C@]3(C)C(=CC[C@@H]4[C@@]5(C)CC[C@H](O)C(C)(C)[C@@H]5CC[C@@]43C)[C@@H]12 | x | i
CC(C)[C@@H]1NC(=O)[C@H](CCCCN)NC(=O)[C@H](Cc2c[nH]c3ccccc23)NC(=O)[C@H](Cc2ccc(O)cc2)NC(=O)[C@H](C)N(C)C(=O)[C@H](Cc2ccccc2)NC1=O | x | i
COC(=O)c1[nH]c2ccc(Br)cc2c1NC(=O)CN1CCN(C2CCCCC2)CC1 | >11 | i
O/N=C1\CC2(Cc3nonc31)OCCO2 | >57 | i
COc1ccccc1N1CCN(C(CNS(=O)(=O)c2ccc(C)cc2)c2cccnc2)CC1 (configuration not stated) | >57 | i
COc1cccc(C(=O)NCCn2ccc3ccccc32)c1 | x | i
Clc1ccc(SCCCCn2ccnc2)cc1 | x | i
Oc1ccc(-c2n[nH]c(=S)n2Cc2ccccc2)cc1 | x | i
CCOC(=O)N1CCN(C(=O)c2c(O)c3cccc4c3n(c2=O)CC4)CC1 | >57 | i
Cc1nc(N[C@@H](Cc2c[nH]c3ccccc23)C(=O)O)c2oc3ccccc3c2n1 | x | i
CC(=O)N1CCC2(CCCN(C(=O)Nc3cccc(F)c3)C2)CC1 | x | i

Source: PubChem

Only part of the results is shown, so the mix of outcomes need not match the whole.
